Assay outcomes as filed in PubChem.
2A Renilla = Primary qHTS Assay for Foot and Mouth Disease Virus Antivirals against NCGC Sytravon and CBC Compound Libraries: Renilla Luciferase Signal; HEK cells with a luciferase reporter of 2A StopGo recoding; Potency, µM (doses to about 57.5 µM), inactives show at the highest dose signal change, negative = less light; 0.32% of 120,000 active; AID 1745857, 2022; active means well fitted falling curve with a large enough effect; inconclusive means small, poorly fitted or top-dose-only effect; inactive means no such curve, though single readings can be large or run the other way; also: nearly all actives have a fitted effect of over 55% in size; overnight with compound
StopGo FLuc = Primary qHTS Assay for Foot and Mouth Disease Virus Antivirals against NCGC Sytravon and CBC Compound Libraries: Firefly Luciferase Signal; 0.23% of 120,000 active; Potency, µM (series often up to 57.5 µM), for inactives: at the top dose signal change, negative = less light; HEK cells with a luciferase reporter of 2A StopGo recoding; active = well fitted falling curve with a large enough effect; inconclusive = small, poorly fitted or top-dose-only effect; inactive = no such curve, though single readings can be large or run the other way; also: nearly all actives have a fitted effect of over 60% in size; overnight with compound
* = called active by the depositor; u = inconclusive; [ ] = remark or other dose. % is scaled to controls: 0 for no effect and ±100 for the full control effect; potency is read from the fitted curve at half-maximal effect.

SMILES	2A Renilla	StopGo FLuc
CCOC(=O)c1nc2ccccc2nc1N1CCN(C(=O)c2cccc(Cl)c2)CC1	13%	-22%
Cc1cccc(OC(C)C(=O)NN)c1 (stereo not given)	31%[activator]	-2%
CCOc1ccccc1OCC(=O)N(Cc1nc2ccccc2c(=O)[nH]1)CC1CCCO1 (stereo not given)	15%	13%
COCC(C)NC(=O)COC(=O)c1nn(-c2ccccc2)cc1OC (stereo not given)	6%	10%
COc1ccc(C)cc1NC(=O)c1cc(S(=O)(=O)NC2CCCCCC2)ccc1F	308%[activator]	-14%
O=C(Nc1nonc1-c1ccc2c(c1)CCCC2)c1cc(=O)c2ccc(Br)cc2o1	2%	4%
Cc1ccc(Nc2nc3ccccc3nc2NS(=O)(=O)c2ccc(F)cc2)cc1C	8%	5%
CCCCN1C(=O)C2(C(=C(O)c3ccc4c(c3)OCCO4)C(=O)C(=O)N2CCOC)c2ccccc21 (stereo not given)	-3%	13%
O=C(NCCc1ccc2c(c1)OCCO2)c1ccc(NS(=O)(=O)c2cccs2)cc1	13%	4%
Cc1ccc(-c2ccsc2C(=O)NCc2ccccn2)cc1	23%	24%
O=C(Nc1ccc(OC(F)F)cc1)c1ccc2ccccc2n1	-5%	188%[activator]
Cc1ccc(C)c(C(=O)COC(=O)c2cc3ccccc3[nH]2)c1	-5%	64%[activator]
COc1cc(OC)c(NC(=O)N2CCC(CN3CCCC3)CC2)cc1Cl	-16%	-22%
O=C(CCc1cccnc1)NCc1cccc(C(F)(F)F)c1	3%	6%
O=C(C1CCC(Cn2c(=O)c3sccc3n(Cc3ccc(F)cc3)c2=O)CC1)N1CCOCC1 (stereo not given)	7%	9%
Cc1cccc(-c2ccccc2N)c1	10%[1.06 µM]	-17%
c1ccc2c(c1)Sc1ccccc1N2CC1CN2CCC1CC2 (stereo not given)	-15%	-21%
CC(NC(=O)CCc1c[nH]c2ccccc12)c1cccc(Cl)c1 (stereo not given)	5%	-4%
COc1cc(NS(=O)(=O)c2ccc(N)cc2)ncn1	6%	-21%
CCOC(=O)Cc1cc(I)c(CC(=O)OCC)cc1I	-1%	16%
Cc1cc(NC(=O)C(=O)c2c(C)[nH]c3ccccc23)no1	23%	30%[activator]
Cc1ccc(C(=O)O/N=C2/CC3CCC2(C)C3(C)CBr)cc1 (stereo not given)	16%	9%
Nc1ccc(N=Nc2ccccc2)c(N)n1	-9%	95%[activator]
CN(CC(=O)Nc1cccc(C(F)(F)F)c1)S(=O)(=O)c1cccs1	42%[activator]	88%[activator]
CCOC(=O)Cn1c(=O)n(C2CCCCC2)c2nc(-c3ccc(OCC)cc3)nc(C(N)=O)c21	-12%	-5%

Record cards (already shown).
O=C(CCc1cccnc1)NCc1cccc(C(F)(F)F)c1 reads 2A Renilla = 3%; StopGo FLuc = 6%
Cc1cccc(-c2ccccc2N)c1 reads 2A Renilla = 10%[1.06 µM]; StopGo FLuc = -17%
Cc1cccc(OC(C)C(=O)NN)c1 (stereo not given) reads 2A Renilla = 31%[activator]; StopGo FLuc = -2%

The listing picks up, starting three compounds before the break.
SMILES	2A Renilla	StopGo FLuc
Nc1ccc(N=Nc2ccccc2)c(N)n1	-9%	95%[activator]
CN(CC(=O)Nc1cccc(C(F)(F)F)c1)S(=O)(=O)c1cccs1	42%[activator]	88%[activator]
CCOC(=O)Cn1c(=O)n(C2CCCCC2)c2nc(-c3ccc(OCC)cc3)nc(C(N)=O)c21	-12%	-5%
CCOC(=O)c1cccc(NC(=O)c2cc3cc4ccc(C)cc4nc3s2)c1	-3%	29%
CC(C)NC(=O)NC(=O)C(C)Sc1nc2ccccc2[nH]1 (stereo not given)	7%	17%
Cc1ccc(C)c(CN2C(=O)c3ccccc3S(=O)c3ccc(C(=O)N4CCC(C)CC4)cc32)c1 (stereo not given)	-9%	-26%
N#Cc1ccc([N+](=O)[O-])cc1C#N	12%	35%[activator]
O=C(CC1N=C2c3ccccc3N=C(SCc3cccc(Cl)c3)N2C1=O)NCCc1ccccc1 (stereo not given)	43%[activator]	-6%
CC(NC(=O)c1ccc(S(N)(=O)=O)o1)c1ccc(OC(F)F)cc1 (stereo not given)	4%	-1%
Cn1c(=O)c(=O)n(C)c2cc(NC(=O)c3cccc(F)c3)c(Cl)cc21	u	-2%
Cc1ccc(-c2cc(C(=O)NC(C)c3ccccc3)c3ccccc3n2)cc1C (stereo not given)	-1%	-10%
Cc1c(CCC(=O)NCc2ccc(F)cc2)c(=O)oc2c(C)c(O)ccc12	3%	0%
CSc1ccc(-c2nc3ccc(C)cn3c2Nc2ccccc2C)cc1	1%	57%[activator]
CCc1ccccc1NC(=O)c1ccc(Cn2nc(N3CCN(c4ccccc4)CC3)ccc2=O)o1	32µM*	u
COc1ccc(/C(C#N)=C/c2cc(Br)c(OCCOc3ccccc3)c(OC)c2)cc1OC	10%	5%
Cc1cnc(NC(=O)Cc2ccc(OCc3c(C)noc3C)cc2)s1	60%[activator]	67%[activator]
Fc1ccc(CSc2cccc3cccnc23)cc1	18%	0%
COc1ccc(C(=O)OCC(=O)Nc2cc(C)ccc2C)c(C)c1	-2%	-4%
O=C(CCc1ncc(-c2ccccc2)o1)Nc1ccc2ccccc2c1	12%	0%
COc1nc(-c2ccccc2)ccc1-c1noc(-c2ccccc2Br)n1	-16%	0%
CCOc1ccc(CCNC(=O)c2sc3ncccc3c2-n2c(C)ccc2C)cc1	51%[activator]	u
Cc1cc(C)c2c(=O)cc(C(=O)NCc3ccccc3)oc2c1	23%	26%
Cn1c(=O)oc2cc(S(=O)(=O)N3CCC(C(=O)NCc4ccc(F)cc4)CC3)ccc21	3%	-5%
Cn1nc(C(=O)N2CCC(C(=O)Nc3ccc4c(c3)OCO4)CC2)c2ccccc2c1=O	-16%	-6%
CCCn1nc(C(=O)Nc2ccnn2Cc2ccccc2)c2ccccc2c1=O	124%[activator]	7%
CC1(C)Cc2ccccc2-c2nc(CN3CCCC3)[nH]c(=O)c21	3%	2%
Cc1cccc2c1-c1sc(C(=O)NCCCN3CCN(c4ccccc4F)CC3)cc1CO2	-10%	-15%
CCc1ccc2ncc3c(-c4ccccc4)nn(-c4ccccc4)c3c2c1	-11%	-14%

Sorted by formula weight (highest first): some entries from above.
SMILES	2A Renilla	StopGo FLuc
COc1ccc(/C(C#N)=C/c2cc(Br)c(OCCOc3ccccc3)c(OC)c2)cc1OC	10%	5%
Cc1ccc(C)c(CN2C(=O)c3ccccc3S(=O)c3ccc(C(=O)N4CCC(C)CC4)cc32)c1 (stereo not given)	-9%	-26%
CC(NC(=O)c1ccc(S(N)(=O)=O)o1)c1ccc(OC(F)F)cc1 (stereo not given)	4%	-1%
Fc1ccc(CSc2cccc3cccnc23)cc1	18%	0%
N#Cc1ccc([N+](=O)[O-])cc1C#N	12%	35%[activator]

Continued.
SMILES	2A Renilla	StopGo FLuc
CC(C)C(=O)Nc1ccc2oc(-c3ccc(F)cc3)nc2c1	4%	52%[activator]
CC(C)CCOc1cccc(CCN)c1	14%	103%[activator]
CC(C)C1Cc2c(sc3nc(SCC(=O)O)n(-c4ccccc4)c(=O)c23)CO1 (stereo not given)	1%	-4%
Brc1ccc(OCc2ccccc2)c(CNCC2CCNCC2)c1	-26%	-25%
C=CCOc1ccc(C(N)=O)cc1	0%	-1%
CCN(CC)c1ccc(NC(=O)c2cc3c(=O)n4cccc(C)c4nc3n2C)c(C)c1	-8%	-1%
COCC(O)CNC(=O)COc1ccc2c(=O)c(-c3ccc(Cl)cc3)c(C)oc2c1 (stereo not given)	-4%	33%[activator]
CCOc1ccc(CNS(=O)(=O)c2ccc3c(c2)CCCN3C(C)=O)cc1OC	0%	-8%
CCOc1c(Cl)cc(C(=O)Nc2ccc(C(F)(F)F)cc2)cc1Cl	13%	18%
CC(C)NC(=O)Cn1ccc2cc(Cl)ccc21	-9%	-2%
Cc1cc(C(=O)Nc2ccc3c(c2)CCC3)cs1	33%	181%[activator]
N=C(N)c1ccc(N)cc1	2%	-1%
CCCCNC(C(=O)c1c[nH]c2c(CC)cccc12)c1ccccc1 (stereo not given)	31%[activator]	14%
C=CCNC(=O)c1cnn(-c2ccc(C(F)(F)F)cn2)c1C(F)(F)F	5%	11%
COc1ccc(Nc2nc(-c3ccc(OC)cc3)c(C)s2)cc1	12%	0%
Cc1occc1C(=O)NC(C)c1cccc(Br)c1 (stereo not given)	-1%	2%
CC(C)NC(=O)c1cc(-c2ccc(Cl)c(Cl)c2)on1	-11%	161%[activator]
CC1=C(C(=O)Nc2ccc(C)cc2C)C(c2cccs2)n2nc(SCc3ccccc3Cl)nc2N1 (stereo not given)	-18%	-21%
COc1cccc(NC(=O)C(=O)c2c(C)n(C)c3ccccc23)c1	31%[activator]	22%
CC(Sc1ncc(-c2ccc(F)cc2)o1)C(=O)N(C)Cc1ccccc1 (stereo not given)	u	0%
Cc1oc(-c2nc(C#N)c(N3CCN(C)CC3)o2)cc1S(=O)(=O)N(C)C	-12%	-16%
O=S(=O)(c1ccccc1)N1CCN(c2ccc(N3CCCCCC3)nn2)CC1	11%	13%
CCOc1ccccc1C(=O)N1CCCCC1CCN1CCOCC1 (stereo not given)	-8%	-20%
CC(Nc1ccc2oc(C(C)(C)C)nc2c1)C(=O)N1CCCC1 (stereo not given)	35%[activator]	181%[activator]
COC(=O)C1CCN(C(=O)c2nn(C(C)C)c(=O)c3ccccc23)CC1	4%	-2%
(next part)
SMILES	2A Renilla	StopGo FLuc
O=c1[nH]c(=O)n(-c2ccccc2)c2c1CN(C1CCCCC1)CN2	7%	24%
CC1(C)CC(NC(=O)CCc2ccsc2)CC(C)(C)N1	4%	18%
Cc1cc(C)c(C#N)c(Sc2ccc3c(c2)OCCCO3)n1	21%	16%
COc1ccc(OCC(=O)OCc2cc(=O)n3nc(-c4cccs4)sc3n2)cc1	-9%	26%
COc1cc(=O)n(-c2ccc(F)cc2)nc1C(=O)Nc1ccc(Br)cc1C	-5%	0%
Cc1nn(-c2ccccc2)c(OC(=O)c2ccccc2F)c1S(=O)(=O)c1ccccc1	3%	-8%
COc1cccc(CCNC(=O)c2c(O)nc3c(C)cccn3c2=O)c1	-8%	-8%
Cc1ccc(Cl)cc1NC(=O)C(=O)NCCc1sc(-c2ccc(F)cc2)nc1C	-12%	-5%
Cc1ccc(-c2n[nH]c3c2C(c2cccc(O)c2)N(c2ccc(C(=O)O)cc2)C3=O)cc1 (stereo not given)	-7%	9%
O=C1CCCc2nccc(-c3ccc(F)cc3)c21	-6%	u
Cc1cccc(Cn2cc(S(=O)(=O)c3cccc(C)c3)c(=O)c3cc(F)c(N4CCOCC4)cc32)c1	10%	-13%
CCc1ccc(OCC(=O)Nc2ccc3oc(-c4ccccc4F)nc3c2)c(-n2cnnc2)c1	5%	0%
Cc1cc(C)c(S(=O)(=O)N2CCOC23CCN(C(=O)c2ccc(F)c(F)c2)CC3)c(C)c1	u	u
O=C(c1ccc2c(c1)CCN2S(=O)(=O)c1ccc(Cl)cc1)N1CCN(c2ccc(F)cc2)CC1	-29%	-20%
O=C(NCc1nc(-c2ccc(Cl)cc2)no1)c1cc2cc(Cl)ccc2o1	-5%	0%
CC(C)c1ccc(NC(=O)NCC(O)c2ccccc2F)cc1 (stereo not given)	0%	190%[activator]
CCN(CC)c1ncnc2c1sc1nc3c(cc12)COC(C)(C)C3	26%	197%[activator]
CCN1CCN(C(=O)c2cccs2)CC1	2%	-3%
COc1cc(NC(=O)CSc2ncnc3nc[nH]c23)cc(OC)c1	-5%	2%
O=c1oc2ccc([N+](=O)[O-])cc2cc1-c1csc(Nc2ccccc2)n1	-13%	-5%
O=C(CN1C(=O)COc2ccc(S(=O)(=O)N3CCCC3)cc21)N1CCN(c2ccc(F)cc2)CC1	1%	2%
Cc1ccc(Oc2nc3ccccn3c(=O)c2/C=C(\C#N)c2nc3ccccc3s2)c(C)c1	-5%	-7%
COc1ccc(CCNC(=O)Cn2c(=O)n(-c3ccc(C)c(C)c3)c(=O)c3c(C)c(C)sc32)cc1OC	4%	-15%
Cc1ccc(N2CCN(C(C(=O)O)c3c[nH]c4ccc(OCc5ccccc5)cc34)CC2)c(C)c1 (stereo not given)	-21%	-21%
COc1ccc2ccc(OC(=O)/C=C/c3csc(C)n3)cc2c1	-11%[1.06 µM]	20%
Cc1cccc2cc(CN(Cc3ccccc3)C(=O)C(C)C)c(=O)[nH]c12	-2%	7%
COC(=O)c1sccc1S(=O)(=O)N1CCN(c2cccc(C)c2)C(C)C1 (stereo not given)	24%	-17%
Cc1oc(-c2ccccc2)nc1Cn1nnc(C(=O)Nc2ccc3c(c2)OCCO3)c1N	40%[activator]	51%[activator]
O=C(NCc1cccc(F)c1)c1ccc(NC(=O)c2nsc3ccccc23)cc1	29%	-16%

Looked up one by one from above:
SMILES	2A Renilla	StopGo FLuc
COc1cc(NS(=O)(=O)c2ccc(N)cc2)ncn1	6%	-21%
O=C1CCCc2nccc(-c3ccc(F)cc3)c21	-6%	u

An excerpt (hit frequency here may not be typical).
